Source: PubChem BioAssay (several laboratories)
Calb FLC: affects C. albicans growth with fluconazole; C. albicans CaCi-2 (fluconazole-resistant clinical isolate) + fluconazole, Alamar Blue growth, 48 h; growth inhibition, % (concentration not given with the values); 300,000 tested, 0.57% active; AID 1979;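 active means most replicates above 75%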;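 further: all wells also contain fluconazole at 8 µg/ml as a sub-toxic cotreatment; 0% = median of DMSO wells and 100% = median of geldanamycin control wells; wells of about 8 µL received 7.5 nL stock; the first replicate is given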
LANA-H2B inh: blocks KSHV LANA binding to histone H2A/H2B; Q9QR71; cell-free LANA-H2A/H2B peptide, fluorescence polarization; inhibition, % (no concentration beside the values); 320,000 tested, 0.6% active; AID 2629; in the data active means inhibition mostly above about 10%, no sharp cut-off; inactive means mostly below about 6.7%;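 further: stock transfer was 7.5 nL into about 10 µL; 0% = median of vehicle wells and 100% = median of positive control wells; one replicate is shown; the record names a cut of 25% in any replicate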
A1 inh: inhibitors of the anti-apoptotic protein A1, read as caspase activation; 330,000 tested, 0.066% active; AID 2462; MEF A1-2A-BIM cells, Caspase-Glo 3/7 luminescence, 3 h; percent of clofoctol response, vehicle zero; caspase activation, % (concentration not given with the values);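 active means over half of replicate activation scores above 10%, or exactly half above 10 with the replicate mean above 10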;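 further: wells of about 30 µL received 50 nL stock; many hits fall short of the cut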
Beta2AR agonist: agonists of human beta-2 adrenergic receptor inducing internalization. 340,000 tested, 0.43% active. P07550. Am2.2-beta2AR cells, FAP receptor internalization, flow cytometry; reference of the scale not given here. response, % (test concentration not listed);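 active means response above a set limit, near 3 SD of response in nonfluorescent compounds, cut at about 42% in these data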;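 further: stock transfer was 100 nL into about 11 µL; a reference agonist was the positive control; negative values mostly stem from fluorescent compounds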
Target sequence (P07550 whole entry, looked up): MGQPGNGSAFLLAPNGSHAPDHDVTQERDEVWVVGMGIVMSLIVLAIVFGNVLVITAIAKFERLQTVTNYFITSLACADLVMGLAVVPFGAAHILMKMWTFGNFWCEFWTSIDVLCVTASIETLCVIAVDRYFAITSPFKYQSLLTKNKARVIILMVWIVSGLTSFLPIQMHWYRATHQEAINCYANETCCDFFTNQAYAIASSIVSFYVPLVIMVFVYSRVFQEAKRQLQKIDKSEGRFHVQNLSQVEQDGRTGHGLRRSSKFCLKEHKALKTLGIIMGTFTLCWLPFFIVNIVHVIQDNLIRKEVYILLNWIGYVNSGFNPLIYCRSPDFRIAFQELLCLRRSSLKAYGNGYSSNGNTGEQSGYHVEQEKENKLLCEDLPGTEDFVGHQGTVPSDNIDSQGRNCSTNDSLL
Beta apoptosis: blocks beta cell apoptosis. INS-1E cytokine-induced death, ATP luminescence, 48 h; percent of positive-control rescue, neutral wells zero. protection from apoptosis, % (test concentration not listed). 300,000 tested, 0.8% active;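 active means all replicates at 75% or more, or half of them and the mean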;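 further: 0% = cytokine-treated negative control wells and 100% = positive control rescue; higher means more ATP so stronger rescue from cytokine killing; wells of about 40 µL received 100 nL stock; the first replicate is given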
UCH37 DUB inh: blocks the human deubiquitinase UCH37; Q9Y5K5; purified proteasome/UCH37, Ub-AMC cleavage fluorescence; inhibition, % (no concentration beside the values); 330,000 tested, 0.33% active;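 active means mean of two replicates above 20%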;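 further: 0% = compound-free wells with enzyme and 100% = wells lacking proteasome; stock transfer was 100 nL into about 20 µL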
Target sequence (Q9Y5K5 whole entry, looked up): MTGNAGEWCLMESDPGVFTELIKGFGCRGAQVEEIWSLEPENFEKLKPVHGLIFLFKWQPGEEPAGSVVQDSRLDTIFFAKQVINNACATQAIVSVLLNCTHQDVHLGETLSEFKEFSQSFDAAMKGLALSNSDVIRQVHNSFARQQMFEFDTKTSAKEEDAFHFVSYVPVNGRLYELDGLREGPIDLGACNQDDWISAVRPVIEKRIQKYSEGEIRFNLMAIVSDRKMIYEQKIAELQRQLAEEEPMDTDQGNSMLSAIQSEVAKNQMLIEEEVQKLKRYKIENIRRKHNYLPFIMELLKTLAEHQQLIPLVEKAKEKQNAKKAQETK
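Material: Human UCH37 enzyme supplied as purified proteasome complex | Schedule: 30 min preincubation with enzyme, 25 min cleavage at room temperature | Detection: AMC fluorescence 355/460 nm | Measure: % inhibition of Ub-AMC cleavage fluorescence | Controls: Wells without proteasome as full block, compound-free enzyme plus substrate as uninhibited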
RanGTP-Imp inh: inhibitors of RanGTP-importin-beta interaction, primary screen, biochemical, FRET, CFP-Ran, YFP-importin-beta, homogeneous; cell-free CFP-Ran/YFP-importin-beta FRET ratio; inhibition, % (concentration not given with the values); 300,000 tested, 1.1% active; AID 2216;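 active means most replicates above 15%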;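 further: 0% = DMSO wells and 100% = Ran loaded with GDP instead of GTP; wells of about 40 µL received 100 nL stock; the first replicate is given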
T cruzi inh: blocks replication of Trypanosoma cruzi | T. cruzi beta-gal in NIH3T3, luminescence, 90 h | inhibition, % (test concentration not listed) | 300,000 tested, 1.4% active;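 active means mean inhibition across valid replicates above about 55%, limit read from the data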;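 further: signal also drops with host cell toxicity which is not excluded here; 0% = plate median of DMSO wells and 100% = zero luminescence signal; higher percent means less beta-gal luminescence so fewer parasites; stock transfer was 50 nL into about 50 µL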
Numbers without * were called inactive; x = no result given.

Letter code: A = Calb FLC; B = LANA-H2B inh; C = A1 inh; D = Beta2AR agonist; E = Beta apoptosis; F = UCH37 DUB inh; G = RanGTP-Imp inh; H = T cruzi inh
CCc1ccc(N(CC(=O)N2CCCCCC2)S(C)(=O)=O)cc1
  A: 2 | B: 1.1 | C: 0.1 | D: 4 | E: 3 | F: 1.8 | G: -0.5 | H: -9

CCOc1ccc(/C=N/OCC(=O)Nc2ccc(OCc3ccccc3)cc2)cc1OC
  A: 4 | B: 3.3 | C: 0.0 | D: -24 | E: 1 | F: x | G: -1.3 | H: -2

Cc1ccc(NC(=O)c2cccc(OC(F)F)c2)c(OC(F)F)c1
  A: -7 | B: -5.3 | C: 0.9 | D: -5 | E: -20 | F: 1.8 | G: -1.9 | H: 17

CC(Oc1ccc2c3c(c(=O)oc2c1)CCCC3)C(=O)NCCN1CCOCC1 (configuration not stated)
  A: -2 | B: 11* | C: 0.2 | D: -10 | E: -1 | F: -37 | G: -2.2 | H: 8

CCOC(=O)c1cn(CC)c2ccc(S(=O)(=O)N3CC(C)CC(C)C3)cc2c1=O (configuration not stated)
  A: x | B: 7.8 | C: 0.2 | D: -1 | E: x | F: 7.0 | G: x | H: x

Cc1ccc(N(CC(=O)Nc2ccc(F)c(Cl)c2)S(=O)(=O)c2c(C)noc2C)cc1
  A: 4 | B: -3.6 | C: 0.4 | D: -2 | E: 9 | F: -1.6 | G: 6.4 | H: 7

CCC(=O)c1c(NC(CC)CO)cc(C)oc1=O (configuration not stated)
  A: 1 | B: -0.1 | C: 0.1 | D: 1 | E: 1 | F: 3.9 | G: 0.3 | H: -2

CCOC(=O)c1cc(NC(=O)CSc2nnc(CN3CCOCC3)n2C)ccc1Cl
  A: 8 | B: -2.2 | C: -0.4 | D: -10 | E: -7 | F: 4.3 | G: 2.4 | H: 1

Cc1ccc(C(=O)c2ccc([N+](=O)[O-])cc2)cc1
  A: 10 | B: -9.4 | C: -0.7 | D: -2 | E: 4 | F: -0.4 | G: -3.3 | H: -9

CCC(C)NC(=O)C1c2cc(OC)c(OC)cc2C(=O)N(C)C1c1cccs1 (configuration not stated)
  A: 2 | B: 6.0 | C: -0.9 | D: 2 | E: 1 | F: 0.8 | G: 5.9 | H: -10

Cc1ccc(N=Nc2c(N)[nH]n3c(=O)c4c(nc23)CCCC4)cc1
  A: 1 | B: x | C: x | D: x | E: x | F: 2.0 | G: -2.3 | H: 4

Cn1c2c(c(=O)n(C)c1=O)C(C(F)(F)F)(C(F)(F)F)N=C(C1CCCCC1)N2
  A: 7 | B: 2.5 | C: -0.7 | D: 0 | E: 2 | F: 2.5 | G: 0.7 | H: -4

O=C(CSCc1ccc(Cl)cc1)N/N=C/c1ccc(OCC(=O)Nc2ccccc2)cc1
  A: 0 | B: -4.4 | C: 0.3 | D: 1 | E: -10 | F: x | G: -3.3 | H: -16

CN(C)CCCNc1nc(N)c([N+](=O)[O-])c(NCc2ccccc2)n1
  A: -2 | B: 2.0 | C: -1.1 | D: -6 | E: -3 | F: 9.0 | G: 5.2 | H: 29

Cc1c(C(=O)N2CCOCC2)sc(NC(=O)c2ccc([N+](=O)[O-])cc2)c1C#N
  A: -2 | B: 1.9 | C: 0.2 | D: 5 | E: -9 | F: 13 | G: -0.5 | H: -11

COc1ccccc1NC(=S)NCCSc1ccc(C)cc1
  A: 23 | B: 1.3 | C: 0.7 | D: 4 | E: -2 | F: -3.0 | G: 1.2 | H: 4

CCN(CCNC(=O)C1CCC(=O)N1Cc1ccc(C)cc1)c1ccccc1 (configuration not stated)
  A: 8 | B: -0.8 | C: -0.4 | D: -1 | E: 8 | F: 4.5 | G: 4.8 | H: -15

CCc1nc(SCC(=O)N2CCN(C(=O)c3ccco3)CC2)c2c3c(sc2n1)CCCC3
  A: -2 | B: -2.4 | C: 0.4 | D: -11 | E: -3 | F: 2.5 | G: 2.5 | H: 34

O=C(NCc1c(F)cccc1F)c1cc(COc2c(F)cccc2F)on1
  A: 37 | B: 2.8 | C: -1.3 | D: -1 | E: -11 | F: 3.5 | G: 4.0 | H: 14

CC(C)(C)c1cc(OC(=O)C2CCCC2)ccc1O
  A: -4 | B: 0.0 | C: 0.6 | D: 0 | E: -3 | F: 1.9 | G: 2.0 | H: -16

O=C(O)CC1Sc2nnc(COc3ccc(Cl)cc3)n2N=C1c1ccccc1 (configuration not stated)
  A: -4 | B: 1.3 | C: 1.2 | D: -6 | E: -3 | F: 6.5 | G: 5.3 | H: -13

COC(=O)C1(Cc2cc(-c3cccc(Br)c3)no2)CCN(C(=O)OC(C)(C)C)CC1
  A: -9 | B: 0.9 | C: 1.2 | D: 0 | E: 3 | F: -1.0 | G: -2.4 | H: 41

CC(C)Cn1c(CCNC(=O)c2ccco2)nc2ccccc21
  A: 28 | B: -2.4 | C: 0.4 | D: -22 | E: 4 | F: 2.9 | G: 3.8 | H: -5

Cc1cc(C(=O)Nc2nnc(C3CCCCC3)s2)no1
  A: 20 | B: 1.2 | C: 0.1 | D: -3 | E: -6 | F: 7.2 | G: -3.1 | H: -11

Cc1cccc(C(=O)NC(=S)Nc2ccc(S(=O)(=O)N(C)c3ccccc3)cc2)c1
  A: -9 | B: x | C: 0.3 | D: -2 | E: 8 | F: 3.5 | G: 7.4 | H: 4

Cc1ccnn1CCC(=O)N1CCCC(CCC(=O)N2CCN(c3ccccn3)CC2)C1 (configuration not stated)
  A: -4 | B: -2.1 | C: 0.3 | D: -5 | E: -2 | F: 1.1 | G: -1.9 | H: -4

COc1ccc(CN(CCC(c2ccccc2)c2ccco2)C(=O)c2ccco2)cc1 (configuration not stated)
  A: -14 | B: -1.5 | C: 0.5 | D: 8 | E: -19 | F: 0.8 | G: 1.5 | H: 5

CCOC(=O)N1CCN(C(=O)CCn2c(=S)[nH]c3ccsc3c2=O)CC1
  A: 16 | B: 0.0 | C: 0.4 | D: -4 | E: 0 | F: 0.8 | G: 3.8 | H: 3

Gathered by group, the compounds so far with a Cl atom (four)
Letter code: A = Calb FLC; B = LANA-H2B inh; C = A1 inh; D = Beta2AR agonist; E = Beta apoptosis; F = UCH37 DUB inh; G = RanGTP-Imp inh; H = T cruzi inh
Cc1ccc(N(CC(=O)Nc2ccc(F)c(Cl)c2)S(=O)(=O)c2c(C)noc2C)cc1
  A: 4 | B: -3.6 | C: 0.4 | D: -2 | E: 9 | F: -1.6 | G: 6.4 | H: 7

CCOC(=O)c1cc(NC(=O)CSc2nnc(CN3CCOCC3)n2C)ccc1Cl
  A: 8 | B: -2.2 | C: -0.4 | D: -10 | E: -7 | F: 4.3 | G: 2.4 | H: 1

O=C(CSCc1ccc(Cl)cc1)N/N=C/c1ccc(OCC(=O)Nc2ccccc2)cc1
  A: 0 | B: -4.4 | C: 0.3 | D: 1 | E: -10 | F: x | G: -3.3 | H: -16

O=C(O)CC1Sc2nnc(COc3ccc(Cl)cc3)n2N=C1c1ccccc1 (configuration not stated)
  A: -4 | B: 1.3 | C: 1.2 | D: -6 | E: -3 | F: 6.5 | G: 5.3 | H: -13

Only Calb FLC, for some of the entries so far:
canonical_smiles,Calb FLC
CCC(=O)c1c(NC(CC)CO)cc(C)oc1=O (configuration not stated),1
CCOC(=O)c1cc(NC(=O)CSc2nnc(CN3CCOCC3)n2C)ccc1Cl,8
Cc1ccc(C(=O)c2ccc([N+](=O)[O-])cc2)cc1,10
CCC(C)NC(=O)C1c2cc(OC)c(OC)cc2C(=O)N(C)C1c1cccs1 (configuration not stated),2
Cc1ccc(N=Nc2c(N)[nH]n3c(=O)c4c(nc23)CCCC4)cc1,1

Given with each value named: two of the compounds above
CCc1ccc(N(CC(=O)N2CCCCCC2)S(C)(=O)=O)cc1
  Calb FLC: 2 | LANA-H2B inh: 1.1 | A1 inh: 0.1 | Beta2AR agonist: 4 | Beta apoptosis: 3 | UCH37 DUB inh: 1.8 | RanGTP-Imp inh: -0.5 | T cruzi inh: -9
CCOc1ccc(/C=N/OCC(=O)Nc2ccc(OCc3ccccc3)cc2)cc1OC
  Calb FLC: 4 | LANA-H2B inh: 3.3 | A1 inh: 0.0 | Beta2AR agonist: -24 | Beta apoptosis: 1 | UCH37 DUB inh: x | RanGTP-Imp inh: -1.3 | T cruzi inh: -2
